rRNA inh HTS – inhibitors of bacterial rRNA selective over humanized ribosomes; E. coli WT GFP vs humanized-ribosome RFP mutants, fluorescence, 24 h; active compounds read low; DMSO median 0, no signal -100; GFP signal change (wild-type ribosome), % (test concentration not listed); 1.6% of 350,000 active; AID 720706;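 active means significant combined selectivity score with lowered wild-type GFP, culture density cut under 30%, mutant RFP and density less affected; inactive means any of these conditions unmet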; further: one replicate is shown; some compounds called inactive have numbers as strong as hits
MLL AF4-AF9 inh – blocks AF4 peptide binding to human AF9; P42568; AlphaScreen, biotin-AF4 peptide binding to FLAG-AF9; inhibition, % at 10 µM; 0.47% of 350,000 active; AID 651704;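 active means every replicate reaching a set inhibition limit, whatever the replicate mean, cut at about 25% in these data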;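 further: 0% = plate neutral control median and 100% = total signal loss; the record names both 10 and 1 µM as test concentration; the first replicate is given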
Target sequence (P42568 whole entry, looked up): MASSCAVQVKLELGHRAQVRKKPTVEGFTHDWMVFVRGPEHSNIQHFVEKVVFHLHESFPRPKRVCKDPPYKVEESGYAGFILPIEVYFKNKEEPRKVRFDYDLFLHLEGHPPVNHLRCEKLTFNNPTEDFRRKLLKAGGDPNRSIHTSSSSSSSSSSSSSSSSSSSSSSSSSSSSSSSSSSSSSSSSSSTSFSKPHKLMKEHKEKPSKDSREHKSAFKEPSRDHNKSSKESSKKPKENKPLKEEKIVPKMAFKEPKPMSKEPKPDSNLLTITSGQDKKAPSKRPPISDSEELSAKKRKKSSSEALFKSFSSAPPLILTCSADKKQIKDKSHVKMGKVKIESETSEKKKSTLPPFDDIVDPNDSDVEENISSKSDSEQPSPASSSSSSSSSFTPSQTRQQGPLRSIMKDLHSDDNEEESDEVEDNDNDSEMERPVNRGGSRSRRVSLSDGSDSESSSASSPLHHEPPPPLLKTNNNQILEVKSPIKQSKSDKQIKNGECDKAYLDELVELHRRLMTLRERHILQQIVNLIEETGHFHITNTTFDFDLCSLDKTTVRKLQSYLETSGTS
FGF22 binding – binders of recombinant human FGF22 by thermal shift; 1.5% of 340,000 active; Q9HCT0; SYPRO orange fluorescence; percent of sucrose octasulfate shift, DMSO zero; calls only at 9.99 µM;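 active means melting point raised past a set limit in the mean and every replicate; three in four hits are not shown here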
Target sequence (Q9HCT0 whole entry, looked up): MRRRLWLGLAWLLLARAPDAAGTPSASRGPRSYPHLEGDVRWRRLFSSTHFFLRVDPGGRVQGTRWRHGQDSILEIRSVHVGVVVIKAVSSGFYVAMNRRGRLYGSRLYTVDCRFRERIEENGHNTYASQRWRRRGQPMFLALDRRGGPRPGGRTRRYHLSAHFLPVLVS
rRNA inh HTS OD600 – further read-out of rRNA inh HTS, marked with its call; OD600 change, %; measured here: OD600 growth;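 optical density of the mix in the first replicate; 0 = DMSO median and -100 = no signal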
rRNA inh HTS RFP – second read-out of rRNA inh HTS, no call of its own (marks repeat the call); RFP signal change, %; measured here: RFP humanized mutant strains;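 first replicate; 0 = DMSO median and -100 = no signal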
* = called active by the depositor; i = inactive; & = joins results of further samples. A portion of the library; the hit share may differ from the screen's.

canonical_smiles	rRNA inh HTS	rRNA inh HTS OD600	rRNA inh HTS RFP	MLL AF4-AF9 inh	FGF22 binding
COc1cccc(-c2cnc3c(c2)C(=O)N([C@H](C)CO)C[C@H](C)[C@H](CN(C)C(=O)NC2CCCC2)O3)c1	-3	-3	1.7	-2.2	i
C[C@@H]1CN([C@@H](C)CO)C(=O)c2cc(NS(=O)(=O)c3ccc(Cl)cc3)ccc2O[C@@H](C)CCCCO[C@H]1CN(C)C(=O)Nc1cccc2ccccc12	4	-1	5.3	-7.0	i
COc1ccc(-c2cc3c(c4c2ccn4C)C2CCC3C2)cn1 (configuration not stated)	-7	-12	-0.8	9.0	i
Cc1ccc(S(=O)(=O)NCC[C@H]2CC[C@H](NC(=O)c3cccc(F)c3)[C@@H](CO)O2)cc1	-3	1	0.5	-2.5	i
COc1ccc(S(=O)(=O)N(C)C[C@H]2Oc3ccc(NC(=O)CCN4CCOCC4)cc3CC(=O)N([C@H](C)CO)C[C@@H]2C)cc1	-3	2	-1.3	0.7	i
Cc1ccc(S(=O)(=O)Nc2ccc3c(c2)C(=O)N([C@H](C)CO)C[C@H](C)[C@H](CN(C)CC2CC2)OCCCC[C@H](C)O3)cc1	5	4	0.3	3.6	i
C[C@@H]1CN([C@H](C)CO)C(=O)Cc2cc(NC(=O)C3CC3)ccc2O[C@@H]1CN(C)C(=O)NC1CCCCC1	5	3	-0.1	-1.7	i
O=C(C[C@@H]1C[C@H]2c3cc(NC(=O)CC4CC4)ccc3O[C@H]2[C@H](CO)O1)NCC1CC1	4	-2	0.9	-5.8	i
C[C@H]1CN([C@@H](C)CO)C(=O)c2cc(-c3cncnc3)cnc2O[C@@H]1CN(C)CC1CCCC1	2	9	-1.2	-2.8	i
COc1cccc(CNC(=O)[C@H]2[C@H](CO)[C@H]3Cn4c(ccc(-c5cccc(OC)c5)c4=O)[C@H]3N2C)c1	-2	-4	1.9	7.5	i
O=C1N(Cc2ccccc2)c2ccccc2OC1(F)F	-2	7	-1.9	-1.8	i
C[C@@H]1CN([C@@H](C)CO)C(=O)c2cc(NC(=O)Nc3ccc(C(F)(F)F)cc3)ccc2O[C@H]1CN(C)CC1CCCCC1	2	4	-2.2	-2.1	i
C[C@H]1CCCCO[C@H](CN(C)C(=O)Nc2ccc(C(F)(F)F)cc2)[C@@H](C)CN([C@@H](C)CO)C(=O)c2cc(NS(=O)(=O)c3ccc(F)cc3)ccc2O1	2	2	-1.0	-1.4	i
C[C@H](CO)N1C[C@H](C)[C@@H](CN(C)C(=O)NC2CCCCC2)Oc2cc(C#Cc3ccc(F)cc3)ccc2S1(=O)=O	0	2	-4.2	0.9	i
C[C@@H]1CCCCO[C@H](CN(C)Cc2ccc(Cl)c(Cl)c2)[C@@H](C)CN([C@H](C)CO)C(=O)c2cc(NC(=O)Nc3ccc4c(c3)OCO4)ccc2O1	1	8	0.0	-3.8	i
Cc1cccc(-c2ccc([C@@H]3[C@@H](CO)N4CCCCN(S(=O)(=O)c5ccccc5F)C[C@H]34)cc2)c1	-49	-64	-5.3	4.7	i
COc1cccc(-c2ccc3c(c2)O[C@@H](CN(C)Cc2ccncc2)[C@H](C)CN([C@@H](C)CO)S3(=O)=O)c1	-18	-11	-1.8	5.1	i
CCC(=O)N1[C@H](CO)[C@@H](c2ccccc2)C12CN(C(=O)c1ccc3c(c1)OCO3)C2	-2	8	0.2	-1.8	i
COc1ccccc1-c1cnc2c(c1)C(=O)N([C@@H](C)CO)C[C@@H](C)[C@@H](CN(C)Cc1ccc(C(=O)O)cc1)O2	2	-3	-3.4	-2.9	i
CCNC(=O)C1CCCN(C(=O)c2ccc(-c3ccccc3)cc2)CC1 (configuration not stated)	-2	-7	3.9	3.9	i
C[C@@H]1CCCCO[C@@H](CN(C)C(=O)Nc2ccccc2)[C@H](C)CN([C@@H](C)CO)C(=O)c2cc(NS(=O)(=O)c3ccccc3)ccc2O1	-8	0	-0.4	-0.9	i
C[C@H]1CN([C@@H](C)CO)C(=O)c2cc(-c3ccccc3F)cnc2O[C@@H]1CN(C)Cc1ccc(F)cc1	-1	4	-1.4	-4.2	i
C/C=C/c1ccc2c(c1)O[C@@H](CN(C)C(=O)c1ccc3c(c1)OCO3)[C@H](C)CN([C@@H](C)CO)S2(=O)=O	-4	-18	1.3	3.7	i
C/C=C/c1cccc(-c2nc(C(=O)NCCN3CCCCC3)cc3c2[C@@H](CCO)N([S@](=O)C(C)(C)C)C3)c1	1	1	2.8	3.2	i
COC(=O)c1ccc2nc(C3CCCCC3)c(Cc3ccc(OC)cc3C)n2c1	6	3	0.1	1.4	i
C[C@H]1CN([C@@H](C)CO)C(=O)Cc2cc(NS(=O)(=O)c3ccccc3)ccc2O[C@@H]1CN(C)S(=O)(=O)c1cn(C)cn1	1	4	-2.6	0.5	i
COc1ccc(NC(=O)N(C)C[C@H]2Oc3ccc(NC(=O)C4CC4)cc3CC(=O)N([C@@H](C)CO)C[C@H]2C)cc1	5	6	0.6	-2.3	i
C[C@H](CO)N1C[C@H](C)[C@@H](CN(C)C(=O)Nc2ccc3c(c2)OCO3)Oc2ccc(NC(=O)CCC(F)(F)F)cc2CC1=O	-1	8	-4.1	-1.3	i
C[C@@H]1CCCCO[C@@H](CN(C)Cc2ccccc2)[C@H](C)CN([C@@H](C)CO)C(=O)c2cc(NC(=O)Nc3ccc(C(F)(F)F)cc3)ccc2O1	4	-3	1.0	0.4	i
CCCCCNC(=O)C(c1ccc(-c2ccccc2)cc1)n1c(=O)c(-c2cc3ccccc3[nH]2)nc2ccccc21 (configuration not stated)	6	1	-3.3	-2.6	i

A section taken from the entries so far:
canonical_smiles	rRNA inh HTS	rRNA inh HTS OD600	rRNA inh HTS RFP	MLL AF4-AF9 inh	FGF22 binding
C[C@H]1CCCCO[C@H](CN(C)C(=O)Nc2ccc(C(F)(F)F)cc2)[C@@H](C)CN([C@@H](C)CO)C(=O)c2cc(NS(=O)(=O)c3ccc(F)cc3)ccc2O1	2	2	-1.0	-1.4	i
C[C@H](CO)N1C[C@H](C)[C@@H](CN(C)C(=O)NC2CCCCC2)Oc2cc(C#Cc3ccc(F)cc3)ccc2S1(=O)=O	0	2	-4.2	0.9	i

(cont.)
canonical_smiles	rRNA inh HTS	rRNA inh HTS OD600	rRNA inh HTS RFP	MLL AF4-AF9 inh	FGF22 binding
COCC(=O)N1CC(=O)N2[C@H](C1)[C@H](c1ccc(-c3ccncc3)cc1)[C@@H]2CO	3	10	-0.9	-0.7	i
CO[C@@H]1CN(C)C(=O)c2cc(NC(=O)Cc3ccccc3)ccc2OC[C@H](C)N(C(=O)c2ccccc2F)C[C@H]1C	0	-6	-0.2	-0.1	i
OC[C@@H]1CN(Cc2ccncc2)C[C@H](n2cnc3c(NCc4ccco4)ncnc32)O1	7	9	5.1	-1.7	i
CN(CC(=O)Nc1cccc(S(=O)(=O)N2CCCC2)c1)CC(=O)Nc1ccc(F)c(F)c1F	-24	-27	-18	-6.7	i
COc1ccccc1-c1cnc2c(c1)C(=O)N([C@H](C)CO)C[C@H](C)[C@@H](CN(C)C(=O)c1cccnc1)O2	-5	3	-3.9	-3.4	i
CCN(CC)c1ccc2cc(-c3nc(-c4cc5ccccc5oc4=O)cs3)c(=O)oc2c1	14	-7	7.3	5.5	i
COc1ccccc1C=NN=Cc1ccccc1O	7	33	-1.9	6.3	i
Cc1noc(C)c1NC(=O)Nc1ccc2c(c1)CC(=O)N([C@H](C)CO)C[C@@H](C)[C@H](CN(C)C)O2	6	4	-0.6	-1.8	i
Cc1ccc(S(=O)(=O)Nc2ccc3c(c2)C(=O)N([C@H](C)CO)C[C@@H](C)[C@H](CN(C)C(=O)NC2CCCCC2)O3)cc1	-1	4	-2.6	-2.4	i
COc1cccc(C(=O)Nc2ccc3c(c2)OC[C@H](C)N(CC2CC2)C[C@H](C)[C@H](OC)CN(C)C3=O)c1	-1	9	-0.1	0.3	i
C/C=C/c1ccc([C@@H]2[C@H]3CN(C(=O)Nc4cc(F)ccc4F)CCCCN3[C@H]2CO)cc1	-50	-71	-4.1	2.3	i
CCNC(=O)C[C@H]1CC[C@H]2[C@@H](COc3ccc(NS(C)(=O)=O)cc3C(=O)N2C)O1	4	11	-1.0	-3.4	i
O=C(O)CNC(=O)C1(NC(=O)OCc2ccccc2)CCCC1	12	4	0.8	-1.0	i
C[C@H](CO)N1C[C@H](C)[C@H](CN(C)Cc2ccccc2)Oc2ccc(NS(=O)(=O)c3cccs3)cc2C1=O	5	-5	2.7	-2.4	i
CO[C@@H]1CN(C)C(=O)c2cc(NC(=O)NC3CCCCC3)ccc2OC[C@@H](C)NC[C@@H]1C	2	7	3.0	-2.0	i

Next part.
molecule	rRNA inh HTS	rRNA inh HTS OD600	rRNA inh HTS RFP	MLL AF4-AF9 inh	FGF22 binding
CO[C@@H]1CN(C)C(=O)c2cc(NC(=O)Nc3ccccc3)ccc2OC[C@@H](C)N(C(=O)Nc2c(C)noc2C)C[C@@H]1C	-2	-5	0.1	1.6	i
CCCNC(=O)N1[C@H](C#N)[C@@H](c2ccccc2)[C@@H]1CO	2	3	-4.5	-1.6	i
COc1cccc(S(=O)(=O)N[C@@H]2CC[C@@H](CC(=O)NCc3ccc(F)cc3)O[C@H]2CO)c1	-3	-5	-0.6	-1.2	i
CO[C@H](CN(C)C(=O)c1ccccc1F)[C@@H](C)CN([C@H](C)CO)S(=O)(=O)c1ccc(Cl)cc1	-2	-5	-5.8	0.1	i
C[C@@H]1CN([C@H](C)CO)C(=O)c2cc(NS(=O)(=O)c3ccccc3)ccc2O[C@@H](C)CCCCO[C@@H]1CN(C)Cc1ccc(Cl)c(Cl)c1	2&13	-3&7	3.4&3.8	0.3&-0.3	i
C[C@@H]1CCCCO[C@@H](CN(C)Cc2ccc(Cl)c(Cl)c2)[C@H](C)CN([C@@H](C)CO)C(=O)c2cc(NC(=O)CCC(F)(F)F)ccc2O1	-1	-11	13	-2.5	i
Cc1cc(C(=O)Nc2cccc3c2O[C@H](CN(C)C(=O)Nc2ccc(C(F)(F)F)cc2)[C@H](C)CN([C@@H](C)CO)C3=O)n(C)n1	-3	-1	-2.3	11	i
Cc1cccc(S(=O)(=O)N2CC[C@@H]3[C@@H](CO)N(C)c4ccc(-c5ccccc5F)cc4[C@@H]32)c1	1	0	0.8	-3.1	i
CC(=O)N1[C@@H]2c3cccc(=O)n3C[C@@H]2[C@@H](CO)[C@@H]1C(=O)N[C@H](C)c1ccccc1	2	0	-0.6	-1.3	i
O=C(Nc1cc(F)ccc1F)N[C@H]1CC[C@@H](CCNC(=O)c2cnccn2)O[C@@H]1CO	-2	-1	0.5	-3.5	i
Cc1cnc(C)c(Nc2nc(C(N)Cc3ccc(F)cc3)cs2)n1 (configuration not stated)	6	4	12	10.0	i
CC(=O)Nc1cc(-c2ccc(C(=O)NC3CC3)cc2)cn2c(-c3cccc(C(C)=O)c3)cnc12	-3	0	12	-1.8	i
C[C@@H]1CN([C@@H](C)CO)C(=O)c2cccc(NC(=O)Nc3ccc4c(c3)OCO4)c2O[C@@H]1CN(C)C(=O)Nc1cccc2ccccc12	-55	-77	-12	5.4	i
CCC(=O)Nc1ccc2c(c1)C(=O)N(C)[C@@H]1CC[C@@H](CC(=O)NCCc3ccncc3)O[C@H]1CO2	-1	-4	-1.9	0.4	i
COC(=O)c1sc(S(=O)(=O)Nc2c(C)nn(C)c2C)c(C(=O)OC)c1C	3	7	-1.5	-2.0	i
C[C@@H]1CCCCO[C@H](CN(C)C)[C@H](C)CN([C@H](C)CO)C(=O)c2cc(NS(=O)(=O)c3cccs3)ccc2O1	-1	4	-0.9	0.2	i
O=C(C[C@H]1C=C[C@@H](NC(=O)CC2CC2)[C@H](CO)O1)NCc1ccc(Cl)cc1	3	2	1.1	-8.8	i
O=C(C[C@H]1CC[C@H](NS(=O)(=O)c2ccccc2)[C@@H](CO)O1)NCc1ccc(Cl)c(Cl)c1	-2	6	0.1	-2.4	i
O=c1cc(-c2cccc(F)c2)oc2ccccc12	-16	-41	-11	-6.7	i
NC(=O)CC(NC(=O)Cc1ccc(Br)cc1)c1ccc(NC2CCCCCCC2)c([N+](=O)[O-])c1 (configuration not stated)	16	12	-1.8	-0.2	i
O=C(C[C@@H]1CC[C@@H]2[C@H](COC[C@H](O)CN2C(=O)Nc2cc(Cl)cc(Cl)c2)O1)NCC1CC1	-25	-23	2.1	2.3	i
CO[C@@H]1CN(C)C(=O)c2ccc(NC(=O)C3CC3)cc2OC[C@H](C)N(CCC(F)(F)F)C[C@@H]1C	-5	-5	-0.9	1.1	i
Cc1cc2c(c(=O)o1)[C@@]1(C(=O)N(C)c3ccccc31)C1=C(CC(C)(C)CC1=O)O2	1	10	0.3	-2.1	i

Molecules shown so far that contain a COOH group:
molecule	rRNA inh HTS	rRNA inh HTS OD600	rRNA inh HTS RFP	MLL AF4-AF9 inh	FGF22 binding
COc1ccccc1-c1cnc2c(c1)C(=O)N([C@@H](C)CO)C[C@@H](C)[C@@H](CN(C)Cc1ccc(C(=O)O)cc1)O2	2	-3	-3.4	-2.9	i
O=C(O)CNC(=O)C1(NC(=O)OCc2ccccc2)CCCC1	12	4	0.8	-1.0	i

Screening data deposited in PubChem by Broad Institute.
